# PABP polyA inh – blocks human PABP binding to poly(A) RNA. inhibition, % at 35 µM. fluorescence polarization. 1% of 290,000 active. P11940;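 active means 50% or more with normal probe brightness, or confirmed in later tests; about a fifth of its hits are not listed in these tables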;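 further: calls also rest on retests at 20 µM and on dose response follow-up; controls were probe without protein and protein plus probe with vehicle; some compounds called inactive have numbers as strong as hits; many hits fall short of the cut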
# Target sequence (P11940 whole entry, looked up): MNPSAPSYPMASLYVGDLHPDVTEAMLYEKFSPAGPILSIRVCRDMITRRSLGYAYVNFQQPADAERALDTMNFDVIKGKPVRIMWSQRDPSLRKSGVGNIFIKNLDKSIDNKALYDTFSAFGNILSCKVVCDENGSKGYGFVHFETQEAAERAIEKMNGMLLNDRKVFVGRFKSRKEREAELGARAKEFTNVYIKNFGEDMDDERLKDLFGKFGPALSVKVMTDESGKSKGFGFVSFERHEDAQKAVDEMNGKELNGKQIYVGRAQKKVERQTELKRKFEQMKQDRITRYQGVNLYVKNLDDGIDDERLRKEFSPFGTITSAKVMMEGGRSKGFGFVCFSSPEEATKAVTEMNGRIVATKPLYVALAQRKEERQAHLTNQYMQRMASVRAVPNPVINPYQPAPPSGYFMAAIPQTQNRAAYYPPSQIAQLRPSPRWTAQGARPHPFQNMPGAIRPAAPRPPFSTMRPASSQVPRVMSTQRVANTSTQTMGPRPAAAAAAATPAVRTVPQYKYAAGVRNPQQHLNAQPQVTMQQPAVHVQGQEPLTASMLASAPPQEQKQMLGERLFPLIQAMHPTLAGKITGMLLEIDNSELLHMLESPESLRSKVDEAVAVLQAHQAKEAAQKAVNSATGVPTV
# MT1-MMP act inh – MT1-MMP (human) activation inhibition; AID 651647; GFP/RFP ratio change, % at 20 µM; 0.061% of 360,000 active; HT1080 RFP-PRO-GFP cells, GFP/RFP ratio fluorescence, overnight; percent of plate control window, DMSO zero;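 active means GFP/RFP ratio change of at least 30% with cell ATP level not reduced by more than half and red fluorescence within 50% of control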; further: strong numbers were not always called active
#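 Assay system: RFP-PRO-GFP reporter HT1080 cells; read-out basis: GFP/RFP fluorescence ratio; benchmarks: DMSO wells and RFP-L50D-GFP cells; doses: 20 µM single dose, 1% DMSO; schedule: overnight cell settling, then overnight compound exposure, 37 °C, 5% CO2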
# Env fusion inh – HIV envelope-mediated fusion inhibition. HeLa-JRFL Env/CEM21 cell fusion, luciferase. inhibition, % at 12.3 µM. 1.1% of 360,000 active. AID 651610;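 active means mean replicate inhibition score of at least 50 and every replicate individually at or above 50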;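 further: 0% = plate neutral controls and 100% = maraviroc near 300 nM; one replicate is shown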
# Rce1 inh – inhibitors of yeast Ras-converting enzyme; Q03530; yeast membranes, quenched prenylated peptide cleavage fluorescence; calls only; 0.27% of 290,000 active;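 active means fall in fluorescence gain of 50% or more versus controls, with final raw signal at or below 3038400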;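 further: plate controls were neutral control wells for no effect and wells lacking membranes for full effect; tested at 10 µM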
# Target sequence (Q03530 whole entry, looked up): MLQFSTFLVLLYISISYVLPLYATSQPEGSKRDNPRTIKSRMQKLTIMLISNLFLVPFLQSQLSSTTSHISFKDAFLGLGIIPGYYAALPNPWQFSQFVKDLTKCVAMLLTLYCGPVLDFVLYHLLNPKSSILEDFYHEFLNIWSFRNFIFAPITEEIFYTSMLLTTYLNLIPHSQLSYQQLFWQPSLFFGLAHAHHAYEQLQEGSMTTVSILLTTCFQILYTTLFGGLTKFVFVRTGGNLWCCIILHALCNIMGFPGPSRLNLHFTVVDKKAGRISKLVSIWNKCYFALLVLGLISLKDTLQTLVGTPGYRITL
# eIF4H inh – inhibitors of RNA binding by human eIF4H. Q15056. eIF4H fluorescence polarization binding assay. inhibition, % at 35 µM. 0.94% of 290,000 active;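 active means 50% or more with normal probe brightness, or confirmed in later tests; about a fifth of its hits are not listed in these tables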;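 further: calls also rest on retests at 20 µM and on dose response follow-up; 0% = protein and probe with vehicle and 100% = probe without protein; strong numbers were not always called active; many hits fall short of the cut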
# Yeast UUG start – modulators of start codon recognition fidelity in yeast; S. cerevisiae UUG-firefly luciferase reporter, luminescence/redox ratio; activity score, % at 18.7 µM; 0.13% of 350,000 active;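 active means replicate mean at a twofold rise or more, about +100% in these data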;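 further: firefly luciferase made from a UUG start codon reports start codon fidelity; reporter light over untreated wells divided by growth signal over untreated wells; some hits fall short of that in this replicate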
# CSC inhib – cancer stem cell inhibition; AID 2717; 1.1% of 300,000 active; inhibition, % at 7.5 µM; cancer stem cell-like cells viability, luminescence;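 active means mean at 75% or more and at least half the replicates too; tested in HMLE shEcad cells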;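 further: 0% = median of negative and 100% = median of positive control wells; the first replicate is given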
# MT1-MMP act inh RFP – second read-out of MT1-MMP act inh, no call of its own (marks repeat the call); RFP signal change, %; measured here: RFP expression control read;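 0 = vehicle wells; hits needed this value within 50% of zero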
# The depositor's hits bear a star; i = inactive; · = no result given. These rows are one share of the data; count on the stated rates, not on these rows.
SMILES,PABP polyA inh,MT1-MMP act inh,MT1-MMP act inh RFP,Env fusion inh,Rce1 inh,eIF4H inh,Yeast UUG start,CSC inhib
CCNC(=O)C1(C)CCCN(C(=O)c2cc(-c3cccs3)oc2C)C1 (stereo unspecified),·,-2.8,0.9,17.4,·,·,-16.5,·
CCCC(C)C(=O)Nc1ccc(Cl)cn1 (stereo unspecified),8.4,-1.2,-1.7,-27.3,i,-10.2,2.7,·
O=c1c2cc(F)ccc2sn1-c1ccccc1Cl,·,-1.1,-16.7,22.3,·,·,-23.4,·
CC1Sc2ccc(C(=O)NCc3ccccn3)cc2NC1=O (stereo unspecified),·,-1.1,-9.3,-15.9,·,·,-42.6,·
COCCCNC(=S)N/N=C/c1ccc(O)cc1O,-7.2,5.2,-0.8,18.1,i,10.6,-23.8,-9.1
COc1ccccc1C(=O)NCC(=O)OCC(=O)N(CC(C)C)c1c(N)n(Cc2ccccc2)c(=O)[nH]c1=O,·,0.2,1.5,2.7,i,·,-0.9,-3.5
O=C(NCCN1CCOCC1)c1ccccc1N1C(=O)[C@@H]2Cc3c([nH]c4ccccc34)C(c3ccccc3)N2C1=O (stereo partly specified),-0.1,-7.9,2.8,·,i,13.8,6.5,-1.7
Cc1ccc(Nc2c([N+](=O)[O-])c(=O)oc3ccccc23)cc1C,-10.1,-2.9,-4.4,-24.3,i,-1.6,·,13.9
CNc1cncc(-c2cccc(C(=O)NC3CC3)c2)n1,·,-6.5,0.5,10.0,·,·,-6.9,·
CCc1c(C(=O)Nc2ncn(Cc3cccc(C)c3)n2)csc1C,-3.9,8.1,-9.5,15.7,i,-1.8,·,-8.3
O=C(CCS(=O)(=O)c1ccccc1)N(CCCN1CCOCC1)c1nc2ccc(F)cc2s1,·,-11.1,-3.5,-178.3,i,·,-11.3,61.6
O=C(Nc1ccc(C(=O)N2CCCCC2)cc1)c1cccc([N+](=O)[O-])c1,0.3,4.8,-3.9,-7.1,i,5.7,11.5,-7.1
CCc1nc2ccc(C(=O)N3CCN(C(C)=O)CC3)cn2c1N(CC)C(C)=O,·,0.9,4.0,-11.0,·,·,-13.3,·
COc1ccccc1CNC(=O)c1cc(-c2ccccc2C)nn1CC1CC(c2cccnc2)=NO1 (stereo unspecified),·,-1.8,-5.9,16.1,·,·,-24.6,-6.5
O=C(CCc1nc(-c2ccccc2)no1)Nc1cccc(C(=O)NC2CC2)c1,·,3.2,-0.8,13.5,·,·,-8.2,1.1
FC(F)(F)c1cnc2c(-c3ccc(Cl)cc3Cl)noc2c1,5.5,-7.0,1.2,·,i,-0.7,-2.7,·
Cc1ccn(C(=O)c2cc3ccccc3oc2=O)n1,18.1,·,·,·,i,8.3,·,8.2
CN1CCN(S(=O)(=O)c2ccc(N3CCc4ccccc4C3)nc2)CC1,-3.9,0.4,-2.8,-21.8,i,-14.6,1.7,-4.2
CC(C)NS(=O)(=O)c1ccc(NC(=O)C(C)OC(=O)CCC2CCCC2)cc1 (stereo unspecified),·,11.4,4.9,2.1,·,·,17.4,-6.3
COc1ccc(CCNC(=O)CSc2nc(N)cc(=O)[nH]2)cc1OC,0.4,9.2,3.6,-5.6,i,-9.8,-14.4,-13.0
Cc1ccc(SCCNC(=S)Nc2cc(C)cc(C)c2)cc1,-6.1,1.9,2.2,·,i,5.1,-37.4,-7.1
CCC(=O)Nc1ccc(Cl)c(NC(=S)NC(=O)c2cc3ccccc3o2)c1,-1.5,6.6,4.6,8.2,i,7.4,-2.0,-10.7
Cc1ccc(/C=C/S(=O)(=O)NCC(=O)OCC(=O)Nc2ccc(C(=O)N(C)C)cc2)cc1,·,-1.3,-0.5,-5.7,·,·,-0.7,1.8
Cc1cc(Br)ccc1OCCN1CCCC1,10.3,0.0,1.5,-4.9,i,3.4,-13.7,41.4
CC(=O)N(C(C)=O)c1c(N2CCCC2)c2ccccc2oc1=O,-4.7,3.6,5.8,11.9,i,0.7,-4.2,-10.8

# 5 entries from above, with two lines to a compound:
# Values in the order: PABP polyA inh, MT1-MMP act inh, MT1-MMP act inh RFP, Env fusion inh, Rce1 inh, eIF4H inh, Yeast UUG start, CSC inhib
- CCCC(C)C(=O)Nc1ccc(Cl)cn1 (stereo unspecified)
    8.4, -1.2, -1.7, -27.3, i, -10.2, 2.7, ·
- O=c1c2cc(F)ccc2sn1-c1ccccc1Cl
    ·, -1.1, -16.7, 22.3, ·, ·, -23.4, ·
- CC1Sc2ccc(C(=O)NCc3ccccn3)cc2NC1=O (stereo unspecified)
    ·, -1.1, -9.3, -15.9, ·, ·, -42.6, ·
- COCCCNC(=S)N/N=C/c1ccc(O)cc1O
    -7.2, 5.2, -0.8, 18.1, i, 10.6, -23.8, -9.1
- COc1ccccc1C(=O)NCC(=O)OCC(=O)N(CC(C)C)c1c(N)n(Cc2ccccc2)c(=O)[nH]c1=O
    ·, 0.2, 1.5, 2.7, i, ·, -0.9, -3.5

# The list goes on:
SMILES,PABP polyA inh,MT1-MMP act inh,MT1-MMP act inh RFP,Env fusion inh,Rce1 inh,eIF4H inh,Yeast UUG start,CSC inhib
COc1ccccc1NC(=O)CCSCCC(=O)Nc1ccccc1OC,-6.1,-3.7,-5.7,3.8,i,-8.9,·,-14.8
O=C(Cc1ccc(Cl)cc1)NC(=S)Nc1ccccc1O,-11.8,-0.2,-0.6,2.0,i,-12.4,-15.1,-4.9
Cc1c(OCC(=O)N2CCC(C(N)=O)CC2)ccc2c1oc(=O)c1ccccc12,3.9,6.4,-2.1,·,i,-0.4,-20.6,-3.6
CCOC(=O)C1=C(CC)OC(N)=C(C#N)C1c1ccc(OC)c(C)c1OC (stereo unspecified),9.8,2.6,4.7,·,i,-4.4,·,18.7
CCNS(=O)(=O)c1ccc(NC(=S)NCC2CCCO2)cc1 (stereo unspecified),0.4,4.0,1.2,15.4,i,7.6,·,-10.6
Oc1ccc(-c2nnc(-c3ccc(O)cc3)nn2)cc1,5.5,5.4,3.8,-379.6,i,-13.6,-47.9,44.4
[O-]/C(=C(\C(=S)Nc1ccc(SC(F)F)cc1)[n+]1cccc(CO)c1)c1ccc(Cl)s1,-7.3,-3.9,0.5,5.4,i,-15.1,·,6.5
O=C(O)C(=O)Cc1c[nH]c2ccccc12,-6.1,-5.0,4.7,·,i,1.6,-9.9,-6.7
O=C(Nc1nnc(CSCc2ccc(F)cc2)s1)c1cccc([N+](=O)[O-])c1,1.6,4.4,-22.5,7.3,i,2.4,12.4,21.4
CC(=O)N1CCN(C(=O)c2cccc(S(=O)(=O)N3c4ccccc4CC3C)c2)CC1 (stereo unspecified),·,-3.2,0.0,-17.0,·,·,2.7,3.6
O=S(=O)(c1cccc(S(=O)(=O)N2CCCC2)c1)N1CCCCC1,-3.9,3.3,3.0,0.8,i,-4.3,-2.7,·
C/C(CC(=O)Nc1ccccn1)=N\NC(=O)C(=O)Nc1cccc(C)c1,-9.7,4.4,1.0,·,i,1.3,-13.8,-2.0
COc1ccc(C(=O)NNC(=O)CCc2ccccc2OC)cc1,3.5,-1.1,2.4,-4.4,i,-3.8,-5.5,·
COc1cccc(CNC(=O)c2ccc3c(c2)S(=O)(=O)N=C2CCCCCN23)c1,-8.6,-0.8,-0.2,·,i,-6.9,-11.5,·
CC(NC(=O)COC(=O)C1CSC2(C)CCC(=O)N12)C12CC3CC(CC(C3)C1)C2 (stereo unspecified),-9.3,5.6,0.7,-0.4,i,1.1,·,3.4
COc1ccc(/C=N/N=C2\SC(CC(=O)O)C(=O)N2c2ccccc2)c(OC)c1 (stereo unspecified),-7.4,2.6,5.5,14.8,i,-5.2,-9.8,-5.8
CC(C)(C)c1ccc(OCc2cnc(Cl)s2)cc1,-3.0,1.4,-2.1,0.3,i,-11.9,·,36.3
O=C1N=C(N2CCOCC2)S/C1=C/c1ccc(-c2ccccc2Cl)o1,2.6,-1.6,-4.9,-11.1,i,0.1,-16.8,0.4
C=CCOc1ccccc1CNc1ccc2[nH]c(=O)[nH]c2c1,4.2,3.8,-5.4,-14.6,i,0.4,-4.4,-5.3
CC(C)CC(NC(N)=O)C(=O)NCCc1ccc(Cl)cc1Cl (stereo unspecified),-1.5,-3.6,3.0,-6.1,i,3.8,·,-0.4
COc1ccc(OC2C(=O)N(c3ccc(F)cc3)C2c2ccc(OC)c(OC)c2)cc1 (stereo unspecified),-12.9,-2.9,-1.8,·,i,-9.0,·,6.2
COc1ccc(S(=O)(=O)Cc2ccc(C(=O)NCc3cccnc3)o2)cc1,0.1,2.4,1.2,8.0,i,12.3,-9.3,4.2
Fc1cccc(CSc2ccc(-c3ccc4c(c3)OCO4)nn2)c1,10.0,8.9,-5.3,·,i,-13.8,-7.8,61.2
C/C(N)=C(/C#N)C(=O)COc1ccc(Cl)cc1Cl,1.6,3.9,4.9,-6.0,i,6.4,·,-11.7
Cc1cccc(CN2CCN(CCCc3ccccc3)CC2)c1,19.4,·,·,·,i,8.3,·,·

# (further entries)
SMILES,PABP polyA inh,MT1-MMP act inh,MT1-MMP act inh RFP,Env fusion inh,Rce1 inh,eIF4H inh,Yeast UUG start,CSC inhib
COC(=O)c1cc2occc2n1Cc1nc(-c2ccccc2C)oc1C,-7.3,-1.5,-3.6,17.3,i,6.4,-11.8,6.7
O=C(O)/C(=C\c1ccccc1)c1ccccc1,4.1,24.4,0.6,-4.5,i,-0.8,-17.1,12.9
COc1ccccc1CNC(=O)[C@H](C)NC(=O)C1CCN(C(=O)[C@@H](N)CCSC)CC1,-0.6,-1.3,3.1,·,i,-9.7,-8.9,7.0
O=C(NC1(C(F)(F)F)C(=O)Nc2c1c(=O)[nH]c(=O)n2Cc1ccccc1)c1ccco1 (stereo unspecified),5.3,6.0,13.7,-8.2,i,-8.4,-0.6,-7.0
Cc1cccc(C)c1NC(=O)Cn1nc(C)n2cccc2c1=O,6.4,-2.4,-1.1,-2.8,i,16.6,-1.6,0.8
Cc1ccccc1C(=O)Nc1ccc(S(=O)(=O)N2CCN(C)CC2)cc1,1.0,-1.6,3.1,·,i,-1.7,-5.1,-2.1
CCC(Oc1ccccc1OC)C(=O)N1CC(=O)Nc2ccccc21 (stereo unspecified),12.3,-1.6,-2.8,-4.7,i,-1.9,·,4.1
CC(=O)N/C(=C\c1ccccc1)C(=O)OC(C)C(=O)c1ccccc1 (stereo unspecified),·,-1.0,2.8,0.9,i,·,·,-1.7
CN(CC(=O)NC1CCCc2ccccc21)C1CCCCC1 (stereo unspecified),1.8,2.1,3.8,9.6,i,4.0,·,4.5
Nc1nc2n(n1)C(c1ccc(Cl)cc1)CC(c1ccc(F)cc1)N2 (stereo unspecified),14.5,-2.1,5.4,-11.4,i,9.2,2.8,-3.8
Cc1cc(NC(=O)CSc2nc(C(C)C)nc3c2c(=O)n(C)c(=O)n3C)no1,5.4,-0.2,-2.4,4.6,i,2.5,-14.6,-4.4
Cc1ccc2cc(C(c3nnnn3C3CCCC3)N(Cc3cccnc3)Cc3ccco3)c(=O)[nH]c2c1 (stereo unspecified),-4.5,-7.7,-3.6,·,i,1.2,-2.0,-7.2
Cc1cc(C)cc(N2CC(C(=O)OCC(=O)Nc3cc(C)on3)CC2=O)c1 (stereo unspecified),-12.5,0.3,0.7,3.9,i,-2.4,-3.9,-14.8

# Of the compounds above, 3 have a nitro group on carbon:
SMILES,PABP polyA inh,MT1-MMP act inh,MT1-MMP act inh RFP,Env fusion inh,Rce1 inh,eIF4H inh,Yeast UUG start,CSC inhib
Cc1ccc(Nc2c([N+](=O)[O-])c(=O)oc3ccccc23)cc1C,-10.1,-2.9,-4.4,-24.3,i,-1.6,·,13.9
O=C(Nc1ccc(C(=O)N2CCCCC2)cc1)c1cccc([N+](=O)[O-])c1,0.3,4.8,-3.9,-7.1,i,5.7,11.5,-7.1
O=C(Nc1nnc(CSCc2ccc(F)cc2)s1)c1cccc([N+](=O)[O-])c1,1.6,4.4,-22.5,7.3,i,2.4,12.4,21.4
